VDR inhibitor: inhibitors of human vitamin D receptor; P11473; VDR-SRC2-3 peptide fluorescence polarization, 2 h; Potency, µM, for the others: max response, negative = inhibition, actives largely listed as inhibitors; 0.93% of 400,000 active; AID 504847; active = well fitted inhibition curve with a large enough effect; inconclusive = small, poorly fitted or top-dose-only effect, or another doubt; inactive = no such curve, though single readings can be large or run the other way; also: series mostly up to about 120 µM
Target sequence (P11473 whole entry, looked up): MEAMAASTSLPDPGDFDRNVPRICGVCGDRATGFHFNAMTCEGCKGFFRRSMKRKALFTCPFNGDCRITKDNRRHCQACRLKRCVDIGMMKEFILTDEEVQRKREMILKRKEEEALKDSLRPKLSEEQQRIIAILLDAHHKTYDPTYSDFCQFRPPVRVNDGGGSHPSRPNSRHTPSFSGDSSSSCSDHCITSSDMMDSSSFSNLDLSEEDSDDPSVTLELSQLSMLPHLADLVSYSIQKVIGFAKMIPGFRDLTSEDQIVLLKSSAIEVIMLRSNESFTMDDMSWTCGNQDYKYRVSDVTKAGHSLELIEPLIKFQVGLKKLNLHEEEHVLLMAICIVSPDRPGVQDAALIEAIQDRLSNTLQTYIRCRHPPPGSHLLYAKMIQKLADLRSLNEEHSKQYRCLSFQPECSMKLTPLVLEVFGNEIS
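Two reagent solutions held at 4 deg C in the dark were dispensed, compounds pinned at 23 nl, and the mixture incubated 2 h at room temperature. Read-out: fluorescence polarization of VDR–SRC2-3 peptide binding.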
* hit, by the source's call; ? = inconclusive; & = joins results of further samples. % is scaled to controls: 0 for no effect and ±100 for the full control effect; potency is read from the fitted curve at half-maximal effect. This is a subset; the hit share may differ from the screen's.

Molecule	VDR inhibitor
CC(=O)Nc1ccc(NC(=O)CC2SC(=O)N(CC(=O)c3ccccc3)C2=O)cc1 (stereo not drawn)	10.3%
O=C(COc1coc(CN2CCN(c3ccccc3)CC2)cc1=O)Nc1ccccc1	5.0%
Cc1cc(/C=N/NC(=O)c2cccc([N+](=O)[O-])c2)c(C)n1-c1ccc(Cl)cc1Cl	4.2%
COC(=O)C1=C(CS(=O)(=O)c2cc(Cl)ccc2OC)NC(=O)NC1c1ccccc1 (stereo not drawn)	0.7%
COc1ccc(C(=O)N2CCN(C(=O)COc3ccccc3)CC2)cc1OC	6.7%
COc1cc2sc3cc(NCCCN4CCOCC4)ccc3c(=O)c2cc1OC	-10.5%
COc1ccc(CNC(=O)C2CCCN(S(=O)(=O)c3cnc[nH]3)C2)cc1 (stereo not drawn)	-12.9%
COC(=O)N(NC(=O)C(O)(C(C)C)C(C)C)c1ccccc1	2.4%
O=S(=O)(c1ccccc1F)N1CCC(c2nc3ccccc3[nH]2)CC1	9.2%
COc1ccc(/C=C2\SC(=S)N(CCCC(=O)Nc3ccccc3C(=O)O)C2=O)cc1OC	-5.1%
COc1cc(NC(=O)CCC(=O)OCCCC(F)(F)C(F)(F)F)nc(OC)n1	7.2%
Cc1ccc(CSC2=NCCN2S(=O)(=O)c2ccccc2)cc1	-8.5%
O=C(c1cn(Cc2ccccc2)nc1-c1ccccc1)N1CCN(c2ccccn2)CC1	2.0%
Cc1cc(C2CC(=O)Nc3ccccc3S2)c(C)s1 (stereo not drawn)	16.1%
COc1ccc(N(C(=O)c2cccnc2)S(=O)(=O)c2ccc(Cl)cc2)cc1	2.7%
COc1ccc(S(=O)(=O)N2CCC(C(=O)NC3CC(C)(C)NC(C)(C)C3)CC2)cc1	-13.1%
CCN1C(=O)C(O)(C2COC(C)(C)CC2=O)c2ccccc21 (stereo not drawn)	-1.4%
COc1ccc(Cc2nc3c4cnn(-c5ccccc5Br)c4ncn3n2)cc1	-0.7%
O=C1ON=C(c2ccccc2[N+](=O)[O-])/C1=C/c1cccc([N+](=O)[O-])c1O	-8.5%
COc1cc2[nH]c(C(=O)N3CC(C)OC(C)C3)cc2c(OC)c1OC (stereo not drawn)	?
CC(C)CCCC(C)C1CCC2C3CC=C4CC(O)CC[C@@]4(C)C3CC[C@@]12C (stereo partly drawn)	-8.6%
NC(N)=N/N=C/c1c(Cl)cccc1Cl	2.6%&7.3%&5.4%&-2.8%
Nc1nonc1-c1nc2ccccc2n1CC(=O)Nc1cccc(Cl)c1Cl	-8.0%
Cn1c(C(=O)N2CCN(c3ccc([N+](=O)[O-])cc3)CC2)cc2c(=O)[nH]c3ccccc3c21	3.0%
Nn1c(SCC(=O)Nc2ccc3c(c2)OCCO3)nnc1-c1ccccn1	0.3%
COc1ccc(NC(=O)CSc2nnc(-c3ccoc3C)n2CC2CCCO2)cc1 (stereo not drawn)	-10.5%
Cc1ccc(-c2nc(N3CCN(c4ccccc4Cl)CC3)c3ccccc3n2)cc1	-12.5%
Cc1cc(-c2nc(C)c(C(=O)NNS(=O)(=O)c3ccc(Cl)cc3Cl)s2)no1	-13.6%
CCOC(=O)C1CCCN(C(=O)c2cc(S(=O)(=O)Nc3ccccc3OC)ccc2C)C1 (stereo not drawn)	2.0%
S=C1NCCc2ccc(Cl)cc2C1c1ccccc1Cl (stereo not drawn)	-17.0%
COc1cc(/C=C/C(=O)OCC(=O)Nc2cc(S(=O)(=O)N3CCCCC3)ccc2C)ccc1O	4.7%
S=c1[nH]nc(COc2ccc(Cl)cc2)o1	-18.9%
O=P(CCCO)(Cc1ccccc1)Cc1ccccc1	-7.9%
Cc1cccc(N2CCN(C(=O)C3CCN(C(=O)c4cc5sccc5n4C)CC3)CC2)c1C	2.9%
COc1ccc(OCC(=O)Nc2ccc(NC(=O)c3cccs3)c(OC)c2)cc1	7.4%
Cc1oc2c(c1C(=O)NCc1cccnc1)C(=O)c1ccccc1C2=O	-10.0%
CCC(C)Sc1cc(C)c(C#N)c2nc3ccccc3n12 (stereo not drawn)	-8.9%
O=C(CSc1nnc(-c2ccccc2)c(-c2ccccc2)n1)N1CCOCC1	20.4%
CC(C)(C)OC(=O)Nc1ccc([C@@H](NC(=O)OC(C)(C)C)C(=O)OC(C)(C)C)cc1	-14.4%
CCOC(=O)C1CCN(C(=O)c2ccc(C)c(NC(=O)c3nsc4ccccc34)c2)CC1	2.5%

Some of the entries so far, as labelled records:
> S=C1NCCc2ccc(Cl)cc2C1c1ccccc1Cl (stereo not drawn)
  VDR inhibitor: -17.0%

> COc1cc(/C=C/C(=O)OCC(=O)Nc2cc(S(=O)(=O)N3CCCCC3)ccc2C)ccc1O
  VDR inhibitor: 4.7%

Reformatted field by field: entries from further up
COC(=O)C1=C(CS(=O)(=O)c2cc(Cl)ccc2OC)NC(=O)NC1c1ccccc1 (stereo not drawn)
  VDR inhibitor = 0.7%

COc1ccc(/C=C2\SC(=S)N(CCCC(=O)Nc3ccccc3C(=O)O)C2=O)cc1OC
  VDR inhibitor = -5.1%

COc1cc2[nH]c(C(=O)N3CC(C)OC(C)C3)cc2c(OC)c1OC (stereo not drawn)
  VDR inhibitor = ?

COc1ccc(S(=O)(=O)N2CCC(C(=O)NC3CC(C)(C)NC(C)(C)C3)CC2)cc1
  VDR inhibitor = -13.1%

The list continues.
Molecule	VDR inhibitor
O=C1C(N2CCOCC2)=C(n2nnc3ccccc32)C(=O)c2ccccc21	-1.3%
O=C(Nc1nccs1)c1ccc(-c2ccc(Cl)cc2)o1	-4.0%
Cn1c(SCC(=O)Nc2sccc2C#N)nnc1-c1ccccc1	1.9%
CC(=O)c1ccc(Oc2cc(C)nc(-n3nc(C)cc3C)n2)cc1	11.0%
CC(C)CC(NC(=O)C1CCC(C)CC1)C(=O)NCc1ccccn1 (stereo not drawn)	-2.0%
Cn1c(=O)c2c3c(sc2n2cnnc12)CCC3	-0.2%
c1cc2c3c(cccc3c1)NC(c1ccc3c(c1)OCO3)N2	?
COc1ccc(OC)c(C2C(C(=O)c3cccs3)=C(O)C(=O)N2CCN2CCOCC2)c1 (stereo not drawn)	-9.8%
O=C(Nc1cccc(Cl)c1)c1ccc(F)c(S(=O)(=O)N2CCN(c3ccccn3)CC2)c1	5.0%
CCN(C(=O)CN1C(=O)c2ccccc2Sc2ccc(C(=O)OC)cc21)c1cccc(C)c1	13.8%
Cc1cc(C)cc(NC(=S)Nc2ccc3cn[nH]c3c2)c1	-20.6%
COc1ccc(-c2nc3ccccc3c(=O)n2CCOc2c(C)cccc2C)cc1	-11.4%
COc1ccc2[nH]cc(CCNS(=O)(=O)c3ccc(F)cc3)c2c1	-1.3%
Cc1ccc(C)c(N2CCN(C(=O)Cc3c(C(=O)O)c(C)cn3C)CC2)c1	6.9%
CC(OC(=O)c1ccccc1OCc1ccc(Cl)cc1)C(N)=O (stereo not drawn)	?
CCOC(=O)CCc1c(C)c2ccc(OCC(=O)OC(C)C)cc2oc1=O	-17.2%
CCOC(=O)C1CCN(c2ncnc3c2[nH]c2cccc(OC)c23)CC1	-10.7%
O=S(=O)(c1ccc(F)cc1)N1CCN(c2nc(-c3ccc(F)cc3)nc3cc(Cl)ccc23)CC1	-3.0%
COc1ccc(C(=O)Nc2nc(N)n(-c3ccccc3)n2)cc1	-1.9%
O=C(Cc1ccccn1)c1ccccc1	-3.3%
O=C(Nc1ccc(Br)cc1)c1cccc2c1C(=O)N(C1CCCCC1)C2	-0.8%
CCN(CC(=O)Nc1c(F)cccc1F)C(=O)c1ccc(-c2ccc(C(C)=O)cc2)o1	4.1%
O=C(NCCCc1nc2ccccc2n1Cc1ccccc1)C1CCCCC1	0.4%
Cc1cccc([C@H](NC(=O)OC(C)(C)C)C(=O)OC(C)(C)C)c1	-16.8%
CC1CCCC(NC(=O)CN2C(=O)c3cccnc3Oc3ccc(Cl)cc32)C1C (stereo not drawn)	-11.2%
COc1cc(C(=O)NC2=NCCS2)ccc1OCc1c(C)noc1C	-6.9%
Clc1cccc(Nc2nc(N3CCOCC3)nc(N3CCOCC3)n2)c1	-1.7%
COc1ccccc1NC(=O)CSc1ccc2nnc(CCNC(=O)c3ccccc3)n2n1	5.3%
O=C(NCC1CCOCC1)c1ccc2nc(Cc3cccc(Cl)c3)oc2c1	20.3%
CC1(C)CC[C@]2(C(=O)O)CC[C@]3(C)C(=CC[C@@H]4[C@@]5(C)CC[C@H](O[C@@H]6O[C@H](C(=O)O)[C@@H](O)[C@H](O[C@@H]7OC[C@H](O)[C@H](O)[C@H]7O)[C@H]6O)C(C)(C)[C@@H]5CC[C@]43C)[C@@H]2C1	?
Cc1cc(C)c2c(N)c(C(=O)NC3CC3)sc2n1	-19.7%
CN(C)/N=C/c1ccc(P(c2ccc(/C=N/N(C)C)o2)c2ccc(/C=N/N(C)C)o2)o1	3.0%
COc1ccc(-n2cnc3sc(-c4ccccc4)cc3c2=O)cc1	4.1%
CCC1=NN(C(=O)CCc2ccccc2O)C(O)(C(F)(F)F)C1 (stereo not drawn)	-8.9%
CCCSc1oc(-c2ccco2)nc1S(=O)(=O)c1ccc(Cl)cc1	0.5%
O=c1ccc(/C=C/c2ccccc2)nn1Cc1ccccc1	?
CC1CC(=O)N(CC(=O)Nc2ccc(F)cc2F)c2ccccc2S1(=O)=O (stereo not drawn)	-2.3%
COc1cccc(-n2c(SCC(=O)NC3CCCCC3)nc3n[nH]c(C)c3c2=N)c1	-11.6%
Cc1ccc2c(c1)c1c(c(=O)n(Cc3ccccc3)c(=O)n1CC(=O)Nc1ccccc1F)n2C	7.7%
COc1cc(NC(=O)N2CCC(CN3CCc4ccccc4C3)CC2)cc(OC)c1	6.0%

(list continues)
Structure,VDR inhibitor
CCCc1cc(=O)[nH]c(SCc2nc(-c3ccc(C)cc3)no2)n1,-1.6%
COc1ccccc1NC(=O)Cn1c(O)c(N=NC(=O)c2ccccc2O)c2ccccc21,-12.1%
CCOc1ccc(N(CC(=O)NCCSc2ccccn2)S(C)(=O)=O)cc1,2.6%
CCc1ccc(Nc2nc3ccccc3c3nnc(C)n23)cc1,9.2%
Cc1ccc(CNc2ccc(N3CCOCC3)cc2)cc1,-18.5%
Cc1ccc(O)c(C2=NCCNC(C(F)(F)F)=C2)c1,-2.7%
COc1ccc(OCCN2C(=O)NC(C)(c3ccc(C)cc3)C2=O)cc1 (stereo not drawn),10.3%
C#CCOc1nc(Nc2cccc([N+](=O)[O-])c2)nc(OCC#C)n1,4.1%
O=C(NCc1ccco1)/C(=C\c1cccs1)NC(=O)c1cccs1,-18.2%
Cc1cccc(N(CC(=O)N(C)Cc2ccccc2)S(=O)(=O)c2ccccc2)c1C,-8.2%
COC(=O)c1ccccc1SC(CC(=O)c1ccccc1)c1ccc(F)cc1 (stereo not drawn),-7.7%
COc1ccccc1NS(=O)(=O)c1ccc(S(=O)(=O)N2CCOCC2)cc1,1.2%
CC1=C(C(=O)OCC2CCCCC2)C(c2ccc(Cl)cc2Cl)CC(=O)N1 (stereo not drawn),-2.0%
Clc1nc2ccccc2nc1-c1ccccc1,16.5%
Nc1ccccc1SCC(=O)Nc1nccs1,-3.6%
CC(=O)NS(=O)(=O)c1ccc2c(c1)Cc1cc(S(=O)(=O)NC(C)=O)ccc1-2,-11.3%
C[C@@H]1O[C@@H](O[C@H]2[C@H](Oc3cc(O)c4c(c3)OC(c3ccc(O)cc3)CC4=O)O[C@H](CO)[C@@H](O)[C@@H]2O)[C@H](O)[C@H](O)[C@H]1O (stereo partly drawn),19.7%
Cc1cccc(/C(N)=N/OC(=O)CCC2CCCCC2)c1,-0.2%
Cc1ccc(NNC(=O)c2c(F)cccc2Cl)cc1C,-1.0%
Cc1ccc2c(=O)cc(C(=O)Nc3cccc(C(F)(F)F)c3)oc2c1C,-2.8%
Cc1ccc2nc(-c3ccc(NC(=O)COC(=O)c4cncc(Br)c4)cc3)sc2c1,-5.2%
O=C(Nc1ccc(F)c(F)c1)c1ccccc1-c1ccccc1,?
N#Cc1cccc(-c2ccc3ncnc(NCc4cccnc4)c3c2)c1,-5.3%
O=C(Oc1ccc(Br)cc1C(=S)N1CCCCC1)c1cc([N+](=O)[O-])cc([N+](=O)[O-])c1,-24.3%
CCNC(=S)N1CCC(NC(=O)C2CCCCC2)CC1,11.4%
CC(C)(C)OC(=O)N1CCN(c2ccc([N+](=O)[O-])cc2)CC1,-21.8%
O=C(O)CSc1nnnn1-c1ccccc1,-8.4%
N/C(=N\OC(=O)c1cc(Cl)ccc1Cl)c1ccccn1,?
CC/C(O)=C1\C(=O)CCCC1=NCc1nc2ccccc2[nH]1,-26.2%
CC(=O)c1ccc(N2CCC(c3cc(-c4ccc(Cl)cc4)n[nH]3)CC2)c([N+](=O)[O-])c1,1.0%
COc1cccc(C(=O)Nc2sc3c(c2C#N)CCN(C(C)=O)C3)c1,79.4µM*
Cc1ccccc1CC(=O)NC1CCCc2ccccc21 (stereo not drawn),-8.4%
COc1ccc(C(=O)C[n+]2cn(C(F)F)c3ccccc32)c(F)c1,?
CC(C)C(=O)N1CCN(c2ccc(NC(=S)NC(=O)c3cc4ccccc4o3)cc2)CC1,-17.5%
COC(=O)c1sccc1NC(=O)c1cc(OC)c(OC)c(OC)c1,6.4%
CC(NC(=O)C(NC(=O)C1CCCN1C(=O)OC(C)(C)C)C(C)C)C(N)=O (stereo not drawn),-5.9%
CCOC(=O)c1ccc(S(=O)(=O)N2CCN(C(=O)c3cc(=O)c4ccccc4o3)CC2)cc1,12.4%
CCC1CCCCN1CCCNC(=O)c1cc2c(=O)oc3ccc(C)cc3c2s1 (stereo not drawn),-5.5%
COc1cc(/C=C/C(=O)c2ccc3c(c2)OCCO3)cc(OC)c1OC,6.6%
O=S(=O)(c1ccc(F)cc1)n1ccc(-c2cnc(-c3ccccc3)s2)n1,-4.0%
COc1ccc(S(=O)(=O)N2CCCN(Cc3cccc(F)c3)CC2)cc1,-3.4%
